# Screens from PubChem BioAssay.
# Mtb betalactam – beta-lactam sensitization of Mtb H37Rv | M. tuberculosis H37Rv growth with meropenem, percent inhibition; hits of this screen are not shown here | inhibition, % at 25 µM | 330,000 tested, 0.27% active | AID 434955;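 active = about 74% or more and at least 40 points above the plate without the antibiotic, then above 30% in a dose series; inconclusive = first-round hits that could not be retested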;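 note: growth measured after seven days incubation then overnight dye step; 0% = bacteria only wells and 100% = bacteria with antibiotic; twin plates without the antibiotic show which effects depend on it; some results filed as inactive read as strong as hits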
# Active calls of the source: *; ? = inconclusive. A portion of the library; count on the stated rates, not on these rows.
SMILES,Mtb betalactam
CCN(C(=O)CSc1nc2ccc(Cl)cc2[nH]1)C1CCS(=O)(=O)C1 (centres undefined),-2
CCOc1ccccc1-c1nnc(SCC(=O)NC2(C#N)CCCC2)o1,-1
COc1ccc(CN2CC(C(N)=O)Oc3ccccc32)cc1F (centres undefined),0
COc1cccc2sc3cc(NCCCN4CCOCC4)ccc3c(=O)c12,4
C#CCOCCOCCOCCNc1nc(N2CCN(C(=O)C([C@@H](C)O)n3cc([C@@H](N)CCCCN)nn3)CC2)nc(N2CCN(C(=O)[C@H](CC(N)=O)n3cc(C(N)[C@@H](C)CC)nn3)CC2)n1 (some centres undefined),1
CC(C)n1ncc2c(C(=O)N3CCN(c4ccc(F)cc4)CC3)cc(-c3ccccc3)nc21,-2
NCCCC[C@@H](C(=O)N1CCNCC1)n1cc([C@@H](N)CC(N)=O)nn1,-5
COc1ccc(CCNC(=O)COC(=O)c2cccn2C)cc1,5
Cn1cccc1C(=O)NC(=O)COC(=O)c1ccc(S(C)(=O)=O)c([N+](=O)[O-])c1,6
CN(CC(=O)Nc1ccccc1Cl)CC(=O)N(C)c1c(N)n(Cc2ccccc2)c(=O)[nH]c1=O,2
COC(=O)c1ccc(CNS(=O)(=O)c2ccc3ccccc3c2)cc1,-8
CC(C)CCNc1ncnc2c1nnn2Cc1ccccc1,-4
COc1ccc(C(=O)OCC(=O)NC2CC2)cc1S(=O)(=O)Nc1ccc(C)cc1,-3
CC1CCN(C(=O)CN(Cc2ccccc2)S(C)(=O)=O)CC1,-6
N#Cc1cccc(NC(=O)C2CCCN(C(=O)c3ccc(Cl)cc3)C2)c1 (centres undefined),0
Cc1ccc(S(=O)(=O)N2CCN(Cc3cc(=O)n4ccccc4n3)CC2)cc1C,-14
CN(Cc1ccccc1)C(=O)COC(=O)c1ccc(Br)o1,30
Cn1ncc([N+](=O)[O-])c1C(=O)Nc1ccccc1C(=O)O,9
COc1ccc(C(=O)NCC2CCCCC2)cc1S(=O)(=O)N1CCOCC1,-5
CC[C@@]1(C(=O)OC)N[C@H](CN(C)S(=O)(=O)c2ccc(OC)cc2)[C@@H]2C(=O)N(C)C(=O)[C@@H]21,0
CC1CC(=O)Nc2ccccc2N1C(=O)CSc1nnnn1C(C)C (centres undefined),1
O=C(OCC#CCSc1nnc(-c2cccc3ccccc23)o1)c1cc2ccccc2o1,32
COc1cccc(-c2ccc3ncnc(NCc4cc(C)cs4)c3c2)c1,97
O=C(Cc1n[nH]c(=O)c2ccccc12)N/N=C/c1cc2c(cc1Cl)OCO2,-6
CCCCCO,-5
O=C(OCCCN=C1NS(=O)(=O)c2ccccc21)c1ccccc1,-5
CC1=C(C(=O)OCc2cc(C)on2)N2C(=O)[C@@H](NC(=O)OCc3cc(C)on3)[C@H]2SC1,5
CCCCOc1ccc(/C=C(\C(=O)O)c2ccc(S(=O)(=O)N3CCCC3)s2)cc1,4
C[C@H]1O[C@@H](O[C@H]2CC[C@@]3(C)C(CC[C@]4(C)C3C=CC3=C5CC(C)(C)CC[C@]5(CO)[C@H](O)C[C@]34C)[C@]2(C)CO)[C@H](O)[C@@H](O[C@@H]2O[C@H](CO)[C@@H](O)[C@H](O)[C@H]2O)[C@H]1O (some centres undefined),3
Cc1cc(SCC(=O)N(C)C2CCCCC2)nc2ccccc12,4
NC(=O)Nc1ccc(C(=O)OCC(=O)c2c[nH]c3ccccc23)cc1,-3
C#CCOCCOCCOCCNc1nc(N2CCN(C(=O)[C@H](CCCCN)n3cc(CN)nn3)CC2)nc(N2CCN(C(=O)[C@H](CCC(=O)O)n3cc([C@@H](N)CCCCN)nn3)CC2)n1,2
Cc1cc(C(=O)Nc2ccc3c(c2)OCCO3)ccc1[N+](=O)[O-],-1
Cc1cc(Cl)ccc1OCCCC(=O)NNC(=O)c1ccncc1,99
O=C(Nc1ccccc1)c1cc(S(=O)(=O)Nc2cccnc2)ccc1Cl,?
COc1ccc(SCCN2CC[C@@H](C(C)(C)C)CCC2=O)cc1,0
CC(=O)Nc1ccc(-c2csc(NC(=O)CCNC(=O)c3ccco3)n2)cc1,0
COC(=O)c1sc(S(=O)(=O)NC(Cc2ccccc2)C(=O)O)c(C(=O)OC)c1C (centres undefined),4
Cc1cc(C)cc(NC(=O)C(OC(=O)c2ccc(O)cc2)c2ccccc2)c1 (centres undefined),1
COc1ccc(/C=C(/NC(=O)c2ccccc2)C(=O)N2CCCC2)cc1OC,-3
O=C(CC1CCCC1)Nc1cc(S(=O)(=O)N2CCOCC2)ccc1O,2
C/C=C/C1=CC(=O)C[C@H](c2ccc(OC)c(OC)c2)C1,-1
Oc1ccc2c3c1O[C@H]1c4[nH]c5ccccc5c4C[C@@]4(O)[C@@H](C2)N(CC2CC2)CC[C@]314,4
COc1cc(N/C(N)=N/c2nc(C)cc(C)n2)cc(OC)c1,-7
O=C(CSc1cccc[n+]1[O-])Nc1ccc(Br)cc1Br,-12
COc1ccc(Cl)cc1NC(=O)CC1CCCC1,3
Cc1ccc(CNC(=O)[C@H](C)N2C(=O)N3CCc4c([nH]c5ccccc45)[C@@]3(C)C2=O)cc1,-2
C=CC[C@H](CC(=O)NCCO)C(=O)N[C@H](COC(=O)[C@@H](CC=C)Cc1ccc(F)cc1)c1ccccc1,-1

# 16 neighbouring compounds already listed, quoted:
SMILES,Mtb betalactam
Cc1cc(C(=O)Nc2ccc3c(c2)OCCO3)ccc1[N+](=O)[O-],-1
Cc1cc(Cl)ccc1OCCCC(=O)NNC(=O)c1ccncc1,99
O=C(Nc1ccccc1)c1cc(S(=O)(=O)Nc2cccnc2)ccc1Cl,?
COc1ccc(SCCN2CC[C@@H](C(C)(C)C)CCC2=O)cc1,0
CC(=O)Nc1ccc(-c2csc(NC(=O)CCNC(=O)c3ccco3)n2)cc1,0
COC(=O)c1sc(S(=O)(=O)NC(Cc2ccccc2)C(=O)O)c(C(=O)OC)c1C (centres undefined),4
Cc1cc(C)cc(NC(=O)C(OC(=O)c2ccc(O)cc2)c2ccccc2)c1 (centres undefined),1
COc1ccc(/C=C(/NC(=O)c2ccccc2)C(=O)N2CCCC2)cc1OC,-3
O=C(CC1CCCC1)Nc1cc(S(=O)(=O)N2CCOCC2)ccc1O,2
C/C=C/C1=CC(=O)C[C@H](c2ccc(OC)c(OC)c2)C1,-1
Oc1ccc2c3c1O[C@H]1c4[nH]c5ccccc5c4C[C@@]4(O)[C@@H](C2)N(CC2CC2)CC[C@]314,4
COc1cc(N/C(N)=N/c2nc(C)cc(C)n2)cc(OC)c1,-7
O=C(CSc1cccc[n+]1[O-])Nc1ccc(Br)cc1Br,-12
COc1ccc(Cl)cc1NC(=O)CC1CCCC1,3
Cc1ccc(CNC(=O)[C@H](C)N2C(=O)N3CCc4c([nH]c5ccccc45)[C@@]3(C)C2=O)cc1,-2
C=CC[C@H](CC(=O)NCCO)C(=O)N[C@H](COC(=O)[C@@H](CC=C)Cc1ccc(F)cc1)c1ccccc1,-1

# The results go on:
SMILES,Mtb betalactam
Cc1ccc(NC(=O)COC(=O)CN2C(=O)c3ccccc3C2=O)cc1,-3
O=C(CC1(CC(=O)N2CCOCC2)CCCC1)Nc1ccccc1,3
CC(=O)C[C@H](O)CC(=O)[C@H]1OC(=O)CCCCCCc2ccccc21,3
O=C(CC1CCCC1)N1CCN(S(=O)(=O)c2ccccc2)CC1,2
CSc1ccccc1NC(=O)COC(=O)Cc1ccsc1,5
CCOC(=O)c1cncn1[C@@H](C)c1ccccc1,1
O=C(CN1CCCCCC1)Nc1ccccc1[N+](=O)[O-],4
O=C(C[n+]1ccccc1)N/N=C/c1ccc(C(=O)O)cc1,-4
O=C(NCC(c1ccc(F)cc1)N1CCOCC1)c1ccc([N+](=O)[O-])o1 (centres undefined),100
CC1CCC(NC(=O)c2nc(Cn3ccc([N+](=O)[O-])n3)no2)CC1 (centres undefined),4
CC(OC(=O)c1ccc(-c2ccc(O)cc2)cc1)C(=O)NC1CCCCC1C (centres undefined),-1
O=C(C[C@@H]1C/C=C\CC[C@H](Cc2ccc(F)cc2)C(=O)OC[C@@H](Cc2ccccc2)NC1=O)NCCO,0
O=C(C[C@@H]1C/C=C\CC[C@@H](Cc2ccc(F)cc2)C(=O)OC[C@@H](Cc2ccccc2)NC1=O)NCCO,-3
O=C(CN1C(=O)NC2(CCCC2)C1=O)NCc1cccc(Cl)c1,6
COc1ccccc1CNC(=O)COC(=O)c1cc2ccccc2o1,54
N#CCCn1cc(C(=O)CN2C(=O)NC3(CCCCCC3)C2=O)c2ccccc21,-2
CCc1noc(C)c1C(=O)OCC(=O)Nc1ccc(F)cc1Cl,-6
CCN(CC(=O)Nc1ccc(NC(C)=O)cc1)C(=O)c1ccc2c(c1)OCCO2,4
Cc1ccc(S(=O)(=O)NCc2ccc(C(=O)NC3CCC(O)CC3)cc2)cc1C (centres undefined),-3
O=C(O)COc1ccccc1,7
C[C@@H](NC(=O)c1nc[nH]c1C(=O)N1CCc2ccccc2C1)c1ccccc1,-3
Cc1cccc(N2C(=O)C3CCCN3C2=S)c1C (centres undefined),2
O=C(COC(=O)Cc1ccc(Cl)cc1)NCc1cccs1,7
CCOC(=O)c1c(C)[nH]c(C(=O)COC(=O)c2ccc([N+](=O)[O-])o2)c1C,99
CCNc1cc(O)ccc1C,-2
COc1ccc2nc3n(c(=O)c2c1)-c1cc(C)ccc1C(=O)NC3Cc1ccc(O)cc1 (centres undefined),-6
COC(=O)C1=C(c2ccc(F)cc2OCc2ccccc2)C[C@@H]2CC[C@H]1N2C(=O)NC1Cc2ccccc2C1,-2
C=C(C)[C@@H](O)COc1c2ccoc2cc2oc(=O)ccc12,-7
Cc1cc(C)n2c(SCC(=O)Nc3cccc(S(N)(=O)=O)c3)nnc2n1,-1
O=C(/C=C/CCc1ccc2c(c1)OCO2)N1CCCCC1,3
O=C(COC(=O)c1cnc(Cl)c(Cl)c1)Nc1cccc(S(=O)(=O)N2CCOCC2)c1,-2
COCCNC(=O)c1cc(-c2ccccc2C)nn1CC1CC(c2cccnc2)=NO1 (centres undefined),-3
CCOC(=O)c1ccc(-c2c(-c3ccccc3OC)sc3cc4c(cc23)OCO4)cc1F,11
C[C@@]12CCC[C@@](C)(C(=O)O)C1CC[C@@]13C[C@@H](NCc4ccccc4)[C@@](C)(CCC12)C3 (some centres undefined),-5
CC(SCC(=O)Nc1ccccc1Br)c1nc2ccccc2c(=O)[nH]1 (centres undefined),-6
CCOC(=O)[C@@H]1[C@H]2COc3cc(OC)ccc3[C@H]2N2C(=O)N(c3cccc(F)c3)C(=O)[C@@]12C,-2
CCOc1ccc(NC(=O)COc2ccc(-n3cnnn3)cc2)cc1,74
CCOC(=O)[C@H]1[C@H]2COc3cc(OC)ccc3[C@@H]2N2C(=O)CN(Cc3ccc(Cl)cc3)C(=O)[C@@]12C,8
COc1ccccc1NS(=O)(=O)c1cccc(C(=O)N2CCCCCCC2)c1,-4
Cc1cccc(C(=O)OCC(=O)N2CCCCCC2)c1O,8
CC1CCN(c2ccc3c(c2)S(=O)(=O)c2cccc(C(=O)NC4CCCCC4)c2C3=O)CC1,7
C[C@@H]1COC(=O)[C@H](NC(=O)OCC2c3ccccc3-c3ccccc32)C/C=C\C[C@@H](CC(=O)N[C@H](CO)Cc2ccccc2)C(=O)N1,-2
COc1ccc(NC(=O)CSCC(=O)Nc2ccccc2C(=O)N2CCCCC2)cc1,-1
O=C(Cc1cccc(C(F)(F)F)c1)Nc1cc(S(=O)(=O)N2CCOCC2)ccc1N1CCCC1,-1
COc1cc(OC)cc(C(=O)N[C@H](C(=O)OCC(=O)c2c[nH]c3ccccc23)C(C)C)c1,-12
Cc1nnc(SCC(=O)N(CC(C)C)C2CCS(=O)(=O)C2)s1 (centres undefined),1
Cc1cc(C)c(NC(=O)COC(=O)C23CC4CC(CC(O)(C4)C2)C3)c(Cl)c1,-12
CC(C)(C)OC(=O)NCCCCCNC(=O)c1[nH]cnc1C(=O)Nc1cccc(Cl)c1,-6
Cc1nnc(NC(=O)CSc2n[nH]c(-c3ccccc3C)n2)s1,3
CCn1ccnc1CN(C)Cc1c(C(=O)N2CCCCCCC2)nc2ccc(Cl)cn12,-3
O=S(=O)(c1ccccc1)N1CCN(Cc2cc3c(cc2Br)OCCO3)CC1,-2
CSCCC(NC(=O)c1ccccc1Cl)C(=O)NCCc1ccccn1 (centres undefined),5
CNC(=S)Nc1cccc(S(=O)(=O)NCc2ccco2)c1,-7
Cc1ccc(-c2csc3ncnc(NCCC(=O)O)c23)cc1,-5
Cc1noc(C)c1NC(=O)Nc1ccc2c(c1)C(=O)N([C@H](C)CO)C[C@H](C)[C@@H](CN(C)S(C)(=O)=O)O2,-3
CN(C(=O)COC(=O)/C=C/c1cccs1)C1CCCCC1,-7
O=C(Nc1ccc(N2CCOCC2)cc1N1CCOCC1)c1ccc(F)cc1,4
O=C(c1cccc(S(=O)(=O)N2CCCC2)c1)N1CCN(Cc2ccccc2)CC1,3
O=C(COC(=O)[C@@H]1CC(O)CN1S(=O)(=O)c1ccc2c(c1)OCCO2)Nc1cc(F)ccc1F (some centres undefined),1
CC(=O)c1c(C)[nH]c(C(=O)OCC(=O)c2c[nH]c3ccccc23)c1C,1
# Next structures follow.
SMILES,Mtb betalactam
NC(=O)c1ccsc1NC(=O)CSc1n[nH]c(N)n1,-2
O=C(C[C@H]1C/C=C\CCCCC(=O)OC[C@H]2CCCN2C1=O)N[C@H](CO)Cc1ccccc1,-1
COc1cc(/C=C/C(=O)OCC(=O)N2c3ccccc3NC(=O)C2(C)C)cc(OC)c1OC,-1
O=S(=O)(c1ccc(SCCOc2ccccc2)nc1)N1CCCC1,-15
CC1CCCCN1C(=O)CSc1nnc(-c2cccnc2)o1 (centres undefined),-3
CN(Cc1ccccc1)S(=O)(=O)c1ccc(N2CCCC2=O)cc1,-7
CN(C)S(=O)(=O)c1ccc(Cl)c(NC(=O)C2CCN(S(=O)(=O)c3cccs3)CC2)c1,-1

# 2 entries picked at random from the list so far:
SMILES,Mtb betalactam
O=C(C[C@H]1C/C=C\CCCCC(=O)OC[C@H]2CCCN2C1=O)N[C@H](CO)Cc1ccccc1,-1
CN(Cc1ccccc1)S(=O)(=O)c1ccc(N2CCCC2=O)cc1,-7
